# Bioassay records from PubChem.
# ugtP null kill – growth inhibition of ugtP-null S. aureus, primary screen, RN4220 ugtP deletion, OD600 | 16 h; some inactives read as strong as hits | growth inhibition, % (test concentration not listed) | actives 0.54% (n = 330,000);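 active = z-score under -3 and OD600 up to 0.15 on both plates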;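 also: plate controls were untreated wells for no effect and antibiotic for full effect; wells of about 80 µL received 100 nL stock; the first replicate is given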
# Mtb hypoxia rep – PubChem AID 1159583. actives 0.1% (n = 300,000). M. tuberculosis hypoxia-regulated fluorescent reporter, fluorescence. fluorescence inhibition, % (test concentration not listed);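 active = 35 to 45% if threefold the growth effect, above 45% if 1.5-fold the growth effect; inactive = the rest, general growth blockers included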;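 also: wells of about 50 µL received 100 nL stock; 0% = vehicle wells and 100% = reference inhibitor wells; whole bacteria with a GFP reporter of the hypoxia response; strong numbers were not always called active; many hits fall short of the cut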
# Autofluor counter – flagged as autofluorescent in microsphere protease counterscreen. fluorescence intensity (concentration not given with the values). compound autofluorescence counterscreen, microsphere flow cytometry; stronger effect = higher value. actives 3.1% (n = 360,000);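 active = at least 3 SD above the mean of all compounds, about 16000 in these data; inconclusive = too few beads counted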;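 also: 100 nL of 1 mM stock went into each well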
# BJeLR lethal – MLPCN primary cell-based screen for lethality selective to Ras in HRASV12 cells; BJeLR (HRASV12) viability, CellTiter-Glo ATP luminescence, 48 h; reference of the scale not given here; inhibition, % (no concentration beside the values); actives 0.17% (n = 300,000); AID 1554, 2009;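 active = replicate mean above 50%; inconclusive = above 50% but judged a plate artefact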;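 also: 50 nL library stock added to about 25 µL; numbers are from one replicate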
# PrP 5UTR inh – inhibition of PrP 5' UTR reporter expression; cell-based PrP 5' UTR mRNA reporter, plate reader; inhibition, % (concentration not given with the values); actives 0.35% (n = 340,000); AID 488862, 2010;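 active = every replicate at 50% or more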;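 also: 0 = median of the neutral control wells; tested in H4 reporter cells; numbers are from one replicate; inactives centre near -14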
# Sa RN4220 lethal – growth inhibition of S. aureus RN4220, primary screen, OD600; actives 0.33% (n = 330,000); 16 h; inhibition, % (no concentration beside the values);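 active = z-score of -3 or lower and OD600 up to 0.18 on both plates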;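 also: plate controls were untreated cells for no effect and reference antibiotic for full effect; stock transfer was 100 nL into about 80 µL; one replicate is shown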
# Mtb hypoxia rep growth – further read-out of Mtb hypoxia rep, marked with its call; growth inhibition, %; measured here: M. tuberculosis growth (absorbance);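 0% = vehicle and 100% = reference antibiotic; read after six days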
# * hit, by the source's call; ? = inconclusive; · = no result given.
# Screens by letter – A = ugtP null kill; B = Mtb hypoxia rep; C = Mtb hypoxia rep growth; D = Autofluor counter; E = BJeLR lethal; F = PrP 5UTR inh; G = Sa RN4220 lethal
1: Cc1cccc(N2CCN(C(=O)CCCn3c(=S)[nH]c4cc5c(cc4c3=O)OCO5)CC2)c1C
  A = -10; B = -1; C = -1; D = 7356; E = -7; F = -22; G = -4.0

2: N#Cc1ccccc1S(=O)(=O)N1CCN(CC(=O)NC(=O)NC2CCCCC2)CC1
  A = 6; B = 8; C = 3; D = 3254; E = 7; F = 3; G = 3.7

3: Oc1ccc(C=NNC2=NCCCCC2)cc1
  A = 10; B = 3; C = -2; D = ·; E = ·; F = ·; G = 2.3

4: Cc1nn(C(C)(C)C)c(OC(=O)c2cccs2)c1Sc1ccccc1
  A = 57; B = 5; C = 9; D = ?; E = -9; F = -23; G = -6.1

5: O=C(O)c1ccc(C=NNc2ccc(S(=O)(=O)N3CCOCC3)cc2[N+](=O)[O-])cc1
  A = 8; B = -11; C = 2; D = ·; E = ·; F = ·; G = 3.5

6: Cn1cc(C(=O)NN=Cc2cccs2)c2ccccc21
  A = -6; B = 11; C = 2; D = ·; E = ·; F = ·; G = 1.2

7: Cc1ccnc(NC(=O)c2cc3ccccc3o2)c1
  A = 5; B = 8; C = -12; D = 6725; E = 19; F = 58*; G = 0.5

8: CC(C)C[C@H](NC(=O)Nc1cccc(Br)c1)C(=O)O
  A = 4; B = 0; C = 8; D = 2004; E = 6; F = -18; G = 4.0

9: CS(=O)(=O)c1nc(-c2ccccc2)cc(C(F)(F)F)n1
  A = ·; B = ·; C = ·; D = 4415; E = 17; F = -6; G = ·

10: COc1ccc(C2CC(=O)N3C(=C2C#N)SCC3(O)c2ccccc2)cc1 (stereo not drawn)
  A = -6; B = -3; C = 8; D = 19377*; E = -6; F = -16; G = 5.5

11: CC1=NN(C(=O)Cc2ccc([N+](=O)[O-])cc2)C(O)(c2cccnc2)C1 (stereo not drawn)
  A = 11; B = 7; C = 2; D = 7908; E = 8; F = -25; G = 2.5

12: COCC(C)NC(=O)CSc1nc2cc(S(=O)(=O)N3CCCCC3)ccc2o1 (stereo not drawn)
  A = 7; B = 6; C = 12; D = 6316; E = ·; F = -15; G = 3.3

13: O=C(C=Cc1cccs1)N1CCC2(CC1)Oc1ccc(F)cc1C(=O)C21CC(c2ccc(Cl)cc2)=NO1 (stereo not drawn)
  A = 0; B = 7; C = 8; D = ·; E = ·; F = ·; G = 1.2

14: CC(CC(=O)Nc1ccc(Cl)c(C(F)(F)F)c1)=NNC(=O)c1cnccn1
  A = -6; B = 0; C = 6; D = ·; E = ·; F = ·; G = -0.4

15: CCN(CC)S(=O)(=O)c1ccc(N2CCOCC2)c(NC(=O)c2cc([N+](=O)[O-])ccc2Cl)c1
  A = 5; B = 5; C = 18; D = 4323; E = -19; F = -15; G = 14

# Reprinted from the part before: 2 entries, then new ones.
# Screens by letter – A = ugtP null kill; B = Mtb hypoxia rep; C = Mtb hypoxia rep growth; D = Autofluor counter; E = BJeLR lethal; F = PrP 5UTR inh; G = Sa RN4220 lethal
14: CC(CC(=O)Nc1ccc(Cl)c(C(F)(F)F)c1)=NNC(=O)c1cnccn1
  A = -6; B = 0; C = 6; D = ·; E = ·; F = ·; G = -0.4

15: CCN(CC)S(=O)(=O)c1ccc(N2CCOCC2)c(NC(=O)c2cc([N+](=O)[O-])ccc2Cl)c1
  A = 5; B = 5; C = 18; D = 4323; E = -19; F = -15; G = 14

16: CCOC(=O)c1ccc(CNC(=O)c2cc(C(C)(C)C)oc2C)o1
  A = 11; B = 5; C = 4; D = 3499; E = 0; F = -12; G = 1.4

17: Cc1cc(C)n(CCCNC(=O)COc2ccc([N+](=O)[O-])cc2)n1
  A = 7; B = 21; C = 32; D = 3007; E = ·; F = -1; G = 5.0

18: O=c1nc(SCc2c(F)cccc2Cl)nc(-c2ccccc2)[nH]1
  A = -20; B = 7; C = 6; D = ·; E = 4; F = ·; G = 3.2

19: O=C(CSc1nnc(-c2ccncc2)s1)Nc1ccc(Cl)c(C(=O)O)c1
  A = 2; B = 11; C = 8; D = 4051; E = 2; F = -16; G = 5.4

20: COCC(=O)Nc1nnc(COc2ccccc2)s1
  A = 9; B = ·; C = ·; D = 4171; E = 4; F = 2; G = 6.3

21: CCOC(=O)c1sc(NS(=O)(=O)c2ccccc2Cl)nc1C
  A = -5; B = -4; C = -9; D = 26130*; E = -3; F = 1; G = 4.5

22: Cc1ccn(CCC(=O)O)n1
  A = -4; B = 11; C = 1; D = 4305; E = 2; F = -22; G = 2.7

23: CCNC(=O)CSc1nnc(CN2CCCCCC2=O)n1-c1ccccn1
  A = 6; B = 8; C = -7; D = 4654; E = -11; F = -30; G = 1.9

24: O=C(CN1C2=NCCN2c2ccccc21)c1ccco1
  A = -3; B = 0; C = -4; D = 6383; E = 7; F = -20; G = -3.2

25: O=C(O)C1CCN(C(=O)c2csc(-c3ccc4c(c3)CCO4)n2)CC1
  A = 2; B = -3; C = -1; D = 4342; E = -6; F = -12; G = 0.1

26: CC(C)(C)Cc1nnc(NC(=O)Cc2ccc([N+](=O)[O-])cc2)s1
  A = -2; B = 11; C = 3; D = 2654; E = -5; F = -16; G = 2.0

27: CCN(CC)c1ccc(NC(=O)Nc2ccc(C(C)=O)cc2)cc1
  A = -9; B = -6; C = -11; D = 3418; E = -4; F = -39; G = -2.9

28: CS(=O)(=O)c1ccc(Cl)c(NC(=O)Cc2ccsc2)c1
  A = -3; B = -1; C = -2; D = 6205; E = 12; F = -18; G = -3.0

29: Cn1cccc1CNCC(O)c1ccccc1 (stereo not drawn)
  A = 12; B = 10; C = 1; D = 3460; E = -13; F = 3; G = 4.2

30: COCCC(=O)N1CCC(Oc2ccc(C(=O)N3C[C@@H]4CCC[C@H]3C4)cc2)CC1
  A = 8; B = 7; C = -2; D = 4160; E = 1; F = 3; G = 3.7

# Compound profiles, from the list above. Screens in order: ugtP null kill, Mtb hypoxia rep, Mtb hypoxia rep growth, Autofluor counter, BJeLR lethal, PrP 5UTR inh, Sa RN4220 lethal
# `Cc1ccn(CCC(=O)O)n1` is listed with -4, 11, 1, 4305, 2, -22, 2.7
# `CCNC(=O)CSc1nnc(CN2CCCCCC2=O)n1-c1ccccn1` is listed with 6, 8, -7, 4654, -11, -30, 1.9
# `Cn1cccc1CNCC(O)c1ccccc1` (stereo not drawn) is listed with 12, 10, 1, 3460, -13, 3, 4.2
# `O=c1nc(SCc2c(F)cccc2Cl)nc(-c2ccccc2)[nH]1` is listed with -20, 7, 6, ·, 4, ·, 3.2
# `CCN(CC)c1ccc(NC(=O)Nc2ccc(C(C)=O)cc2)cc1` is listed with -9, -6, -11, 3418, -4, -39, -2.9

# Pulled by compound from above, 3 records:
# Screens by letter – A = ugtP null kill; B = Mtb hypoxia rep; C = Mtb hypoxia rep growth; D = Autofluor counter; E = BJeLR lethal; F = PrP 5UTR inh; G = Sa RN4220 lethal
12: COCC(C)NC(=O)CSc1nc2cc(S(=O)(=O)N3CCCCC3)ccc2o1 (stereo not drawn)
  A = 7; B = 6; C = 12; D = 6316; E = ·; F = -15; G = 3.3

22: Cc1ccn(CCC(=O)O)n1
  A = -4; B = 11; C = 1; D = 4305; E = 2; F = -22; G = 2.7

5: O=C(O)c1ccc(C=NNc2ccc(S(=O)(=O)N3CCOCC3)cc2[N+](=O)[O-])cc1
  A = 8; B = -11; C = 2; D = ·; E = ·; F = ·; G = 3.5

# New compounds follow
# Screens by letter – A = ugtP null kill; B = Mtb hypoxia rep; C = Mtb hypoxia rep growth; D = Autofluor counter; E = BJeLR lethal; F = PrP 5UTR inh; G = Sa RN4220 lethal
31: CCOC(=S)SCC(=O)Nc1nc(-c2ccccc2)cs1
  A = 38; B = 2; C = 6; D = 9910; E = 2; F = 10; G = -5.5

32: COc1ccc(-c2cc(CNS(=O)(=O)c3cc(OC)ccc3OC)on2)cc1
  A = 2; B = 8; C = 3; D = 5652; E = 1; F = -5; G = 1.1

33: Cc1cccc(OCC(=O)O/N=C(\N)Cc2cccs2)c1
  A = 2; B = 5; C = -2; D = 6014; E = 5; F = -15; G = 3.1

34: CC(C)(C)c1cc(NS(=O)(=O)c2cccs2)no1
  A = 0; B = 1; C = -1; D = 3773; E = 2; F = -37; G = 1.9

35: CCNC(=S)N1CCc2cc(OC)c(OC)cc2C1COc1ccc(OC)cc1 (stereo not drawn)
  A = 3; B = 13; C = 0; D = 4908; E = 2; F = -15; G = 4.1

36: C=CCn1c(=O)c2ccccc2n2c(SCC(=O)NC)nnc12
  A = -4; B = 2; C = 0; D = 2966; E = -1; F = 0; G = -0.9
